Vaccinia mCherry: qHTS for Stage-Specific Inhibitors of Vaccinia Orthopoxvirus: mCherry Reporter Primary qHTS | 310,000 compounds, 0.63% hits | Potency, µM (series often up to 36.5 µM), inactives show at the top dose activity change, negative = inhibition, hits mostly inhibitors | Vaccinia virus mCherry reporter infection, fluorescence; about a quarter of the inactives have no number; active = well fitted inhibition curve with a large enough effect; inconclusive = small, poorly fitted or top-dose-only effect; inactive = no such curve, though single readings can be large or run the other way; tested in A549 cells; further: nearly all actives have a fitted effect of over 35% in size; inactives centre near -10
Vaccinia Venus: qHTS for Stage-Specific Inhibitors of Vaccinia Orthopoxvirus: Venus Reporter Primary qHTS | Vaccinia virus Venus reporter expression, fluorescence | Potency, µM (titrated, usually from 36.5 µM), for the others: at the highest dose activity change, negative = inhibition, usual class: inhibitors | 330,000 compounds, 0.46% hits; active means well fitted inhibition curve with a large enough effect; inconclusive means small, poorly fitted or top-dose-only effect; inactive means no such curve, though single readings can be large or run the other way; tested in A549 cells; further: nearly all actives have a fitted effect of over 30% in size; inactives centre near -10
Active calls of the source: *; i = inactive; ? = inconclusive; · = not tested or not shown; [ ] = another dose, or the depositor's remark. On the % scale 0 is the no-effect control and ±100 the full control effect; potency means the concentration at half of the fitted maximal effect.

SMILES | Vaccinia mCherry | Vaccinia Venus
CCn1cc(CCC(=O)NCc2ccc(F)cc2)c2ccccc21 | -12% | -15%
O=C(c1cc2nc(-c3ccco3)cc(C(F)(F)F)n2n1)N1CCN(c2ccccn2)CC1 | -25% | -10%
Cc1ccc(S(=O)(=O)NC(C)C(=O)N2CCOCCOCCOCC2)cc1 (stereo not given) | -6% | -9%
O=C(CCn1c(=O)sc2ccccc21)Nc1ccon1 | -12% | 12%
COC(=O)c1ccc(/C=C2/SC(=S)N(CCC(=O)N3CCOCC3)C2=O)cc1 | -14% | -6%
CC(=O)N1CCc2cc(S(=O)(=O)NC(CC(C)C)C(=O)NCc3ccccc3Cl)ccc21 (stereo not given) | 2% | 1%
Cc1ccc(S(=O)(=O)N2C(=O)[C@@H]3Cc4ccccc4CN3C2=O)cc1 | i | -9%
CC(C)C(NC(=O)c1ccc(Cl)c([N+](=O)[O-])c1)C(=O)NCc1ccccn1 (stereo not given) | -14% | -4%
CCN(C(=O)CSc1nc2cc(C(=O)O)ccc2c(=O)n1-c1ccccc1F)C1CCS(=O)(=O)C1 (stereo not given) | -18% | 0%
CC(C)c1nnc(NC(=O)C2CCN(S(=O)(=O)c3ccc(-n4cnnn4)cc3)CC2)s1 | i | -2%
O=C(COc1ccccc1[N+](=O)[O-])N/N=C/c1cccs1 | -12% | -6%
COc1ccccc1CNC(=O)N[C@@H](Cc1ccccc1)C(=O)O | · | -14%
O=c1c2ccccc2nnn1CSc1nc2ccccc2c(=O)n1CCCO | -14% | -13%
Cc1nc(N2CCOCC2)c2c(C(=O)N3CCN(c4cc(Cl)ccc4C)CC3)c(C)oc2n1 | -11% | -24%
COc1ccc(/C=C/C(=O)OCc2cccc([N+](=O)[O-])c2)cc1 | -11% | -11%
O=NN(CC(=O)NNc1ccccc1)CC(=O)NNc1ccccc1 | 29% | -3%
O=C(CCn1c(=O)oc2ccccc21)Nc1nc2ccccc2s1 | i | 4%
CC(C)OC(=O)COc1ccc(-c2ccccc2)cc1 | -11% | -4%
CC1(C)C2CC[C@]1(C)C(=O)N(CCCCN1CCN(c3ccccn3)CC1)C2=O | -12% | -10%
O=C(NCC1CCCO1)c1cc(S(=O)(=O)N2CCCC2)c(Cl)cc1Cl (stereo not given) | -15% | -11%
O=C(CNC(=O)c1sc2ccccc2c1Cl)NC1CC1 | i | -16%
COc1ccc(C(=O)O)cc1S(=O)(=O)NCc1ccncc1 | i | -9%
O=C(CCNC(=O)Cn1ccc2ccccc2c1=O)NCCCN1CCN(c2ccc(F)cc2)CC1 | -22% | -16%
Fc1ccc(Nc2nc(Oc3ccc4c(c3)OCO4)nc(N3CCOCC3)n2)c(F)c1 | 7% | -5%
COc1ccccc1NS(=O)(=O)c1cc(NC(=O)Cc2n[nH]c(=O)c3ccccc23)ccc1Cl | -8% | -14%
CN(c1ccc(C(=O)NCC2CCCO2)cc1)S(=O)(=O)c1ccccc1 (stereo not given) | · | -21%
CC(=O)Nc1cccc(C(=O)O)n1 | i | 7%
CCOCCCNC(=O)c1c[nH]c2ccc(C)cc2c1=O | -16% | -13%
CC1=CC(O)C(O)C2(C)C1CC1OC(=O)C(O)C3C(C)C(O)C4(O)OCC13C42 (stereo not given) | ? | 7.9µM*
O=C(CSc1nnc(Cc2ccccc2)n1-c1ccc(F)cc1)N1CCOCC1 | -11% | -7%

Quoted at random: 4 records from the list
SMILES | Vaccinia mCherry | Vaccinia Venus
O=C(CNC(=O)c1sc2ccccc2c1Cl)NC1CC1 | i | -16%
CC(=O)Nc1cccc(C(=O)O)n1 | i | 7%
CCOCCCNC(=O)c1c[nH]c2ccc(C)cc2c1=O | -16% | -13%
Fc1ccc(Nc2nc(Oc3ccc4c(c3)OCO4)nc(N3CCOCC3)n2)c(F)c1 | 7% | -5%

(next part)
SMILES | Vaccinia mCherry | Vaccinia Venus
CC(=O)N1CCN(C(=O)c2ccco2)CC1 | -19% | 8%
CC1CCN(CC(=O)Nc2ccc(N3CCCCCC3)cc2)CC1 | ? | -10%
O=C(NCCC1CCCCN1S(=O)(=O)c1ccccc1)C(=O)Nc1ccc(F)cc1 (stereo not given) | -25% | -20%
COc1ccc(C)cc1NC(=O)CSc1ccc(-c2ccccn2)nn1 | 16µM* | ?
COCC1CCN(C(=O)c2ccc3oc(Cc4ccccc4)nc3c2)C1 (stereo not given) | -6% | -17%
CC1(C)CC(=O)C=C(c2ccccc2CO)C1=O | i | -5%
COc1ccc(/C=N/NC(=O)Cn2c(Cc3ccc(OC)c(OC)c3)nc3ccccc32)cc1 | -9% | -17%
CCCCOCCCNC(=O)C[C@@H]1C[C@@]2(C(=O)OC)CCCCC=C2N(Cc2ccc3c(c2)OCO3)C1=O | -20% | -19%
CCOC(=O)c1cc(-c2csc(-c3cccc(Cl)c3)n2)on1 | i | -12%
CCOc1ccc(NC(=O)CC2C(=O)N(C)C(=S)N2Cc2ccco2)cc1 (stereo not given) | i | -10%
Cc1ccc(/C=C/C(=O)Nc2ccc(S(N)(=O)=O)cc2)o1 | -7% | 10%
O=C(Cc1c[nH]c2ccccc12)Nc1nnc(C2CC2)s1 | ? | 20%
COCCCn1nnnc1SCC(=O)Nc1nc2ccccc2s1 | i | -1%
O=C(CSCc1ccc(F)cc1)Nc1ccccc1C(=O)N1CCOCC1 | -13% | -8%
O=C(NCC(=O)N1CCCC1)c1cccs1 | -10% | -5%
CCOC(=O)c1cc(-c2ccc(C)cc2)n(CCC(=O)NC(C)CC)c1C (stereo not given) | -15% | -14%
CCCCNC(=O)c1nn(-c2ccc(CC)cc2)nc1CO | -4% | -6%
CCOC(=O)CNC(=S)NN(C)C | -3% | -7%
CCC(=O)N1CCc2cc(S(=O)(=O)N(C)c3ccc(Br)cc3)ccc21 | i | -6%
COc1ccc(CCNC(=O)CSc2nc(C)nc3sccc23)cc1OC | -12% | -9%
CCC1CCCCN1C(=O)COc1ccc(F)cc1 (stereo not given) | i | 4%
COc1cc(-c2[nH]nc3c2C(c2ccoc2)C(C#N)=C(N)O3)cc(OC)c1OC (stereo not given) | · | -13%
Cc1ccc(NC(=O)C(=O)NCC(c2ccc3c(c2)OCO3)N2CCOCC2)cc1C (stereo not given) | -1% | -5%
CC(C)[C@H](NC(=O)OC(C)(C)C)C(=O)NCC1CCC(C(=O)N[C@@H](Cc2ccccc2)C(=O)O)CC1 (stereo not given in full) | -10% | -5%
N#Cc1c(NCc2ccccc2)ccnc1NCc1cccnc1 | ? | ?
O=C(Cn1c(CC(=O)N2CCOCC2)nc2ccccc21)Nc1ccc2c(c1)OC(F)(F)O2 | -10% | -21%
CN(/C=C1/C(=O)CNC1=O)CCO | 0% | 1%
CCCCOC(=O)c1ccc(NC(=O)C(=O)NCc2ccco2)cc1 | 2% | -8%
CCCP(=O)(CC(=O)O)c1ccccc1 (stereo not given) | · | 8%
Cc1cc(N2CCCCC2)nc(-c2ccc(Br)cc2)n1 | -29% | -17%
CCN1CCN(S(=O)(=O)c2ccc(Cl)c(C(=O)NCc3ccco3)c2)CC1 | -12% | -8%
CCOC(=O)C1=C(O)/C(=C/c2cc(OC)c(OC)c(OC)c2)SC1=Nc1ccc(OC)cc1 | · | -28%
CC#CCN(Cc1ccco1)C(=O)C1CCC(=O)N(Cc2ccccc2F)C1 (stereo not given) | -10% | -1%
COc1ccc(C2c3c(C)nn(-c4ccccc4)c3NC(=O)N2c2ccccc2)cc1 (stereo not given) | i | -10%
CCCCSc1nnc2c(n1)OC(C)N(C(C)=O)c1ccccc1-2 (stereo not given) | -8% | -12%
NC1=NC(=Nc2cccc(S(=O)(=O)N3CCOCC3)c2)c2ccccc21 | -27% | ?
S=C(NC1CCCCC1)N1CCCCC1 | -4%[7.34 µM] | -15%[7.34 µM]
Cc1ccc2cc(C#N)c(SCC(=O)N3CCCc4ccccc43)nc2c1C | -11% | -3%
O=C(Nc1cnn(Cc2ccc(F)cc2)c1)c1cc2nc(-c3ccco3)cc(C(F)(F)F)n2n1 | -19% | -6%
CCOC(=O)c1ccc(COC(=O)c2ccc(-c3nnc(-c4ccccc4)o3)cc2)o1 | · | -2%
CCC(C)Sc1cccc(-c2nc3ccc(Cl)cn3c2NCc2ccccc2)c1 (stereo not given) | ? | ?
Cc1ccccc1S(=O)(=O)Cc1ccc(C(=O)N2CCN(c3ncccn3)CC2)o1 | · | -10%
NC(=O)COn1c(SCC(N)=O)nc2ccccc2c1=O | -3% | -2%
Cc1ccc(NC(=O)c2sc(-n3nc(C)c(Cc4ccc(Cl)cc4)c3C)nc2C)cc1 | -10% | -9%
CCc1ccc(-c2cc(C)no2)cc1S(=O)(=O)N1CCN(C(=O)c2ccco2)CC1 | -15% | ?
O=C(O)Cn1cc(/C=N/Nc2ccc([N+](=O)[O-])cn2)c2ccccc21 | -10% | -5%
COc1ccc(C2CN(C)CC2C(=O)c2ccc(C)cc2)cc1Cl (stereo not given) | -19% | -5%
COc1ccc(C(CCNCc2ccc(OC)c(OC)c2)c2ccc(F)cc2)cc1 (stereo not given) | i | -2%
Cc1ccc(S(=O)(=O)N2CCN(C(=O)CN3CCOCC3)C2)cc1 | · | -5%
CCOC(=O)C1(Cc2ccccc2C)CCCN(C(=O)c2ccoc2)C1 (stereo not given) | i | -11%
CC(=O)c1cccc(NC(=O)Cc2ccc(NC(=O)N3CCCCc4ccccc43)cc2)c1 | -16% | -6%
CC(=O)c1c(C)[nH]c(C(=O)C(C)Sc2nnc(NC3CC3)s2)c1C (stereo not given) | -14% | -20%
COc1ccc(N2C(=O)CSC2c2ccc(F)c(F)c2)cc1 (stereo not given) | i | -6%
Cc1oc2ccc(OS(C)(=O)=O)cc2c1C(=O)OC(C)C | i | -15%
O=C(O)CCNS(=O)(=O)c1ccccc1 | · | 8%
CCn1c(SCC(=O)N2CCCc3ccccc32)nnc1-c1ccoc1C | i | 4%
COc1cccc(N(CC(=O)N2CCN(C)CC2)S(=O)(=O)c2ccccc2)c1 | -18% | -11%
O=c1[nH]c(CN2CCN(S(=O)(=O)/C=C/c3ccccc3)CC2)nc2ccccc12 | i | -11%
Cc1c(Cl)cccc1NC(=O)CSc1nc(=O)n(Cc2cccnc2)c2c1CCC2 | -9% | -17%
COc1ccc(NS(=O)(=O)c2cccc(C(=O)NNC(=O)CNC(=O)c3ccc(C)cc3)c2)cc1 | -16% | -12%

Individual results from the entries so far:
COC(=O)c1ccc(/C=C2/SC(=S)N(CCC(=O)N3CCOCC3)C2=O)cc1 | Vaccinia mCherry = -14%
COc1cc(-c2[nH]nc3c2C(c2ccoc2)C(C#N)=C(N)O3)cc(OC)c1OC (stereo not given) | Vaccinia Venus = -13%
Cc1cc(N2CCCCC2)nc(-c2ccc(Br)cc2)n1 | Vaccinia mCherry = -29%
O=C(CNC(=O)c1sc2ccccc2c1Cl)NC1CC1 | Vaccinia Venus = -16%
CCC1CCCCN1C(=O)COc1ccc(F)cc1 (stereo not given) | Vaccinia Venus = 4%

In the list so far, 3 contain a cyano group:
SMILES | Vaccinia mCherry | Vaccinia Venus
COc1cc(-c2[nH]nc3c2C(c2ccoc2)C(C#N)=C(N)O3)cc(OC)c1OC (stereo not given) | · | -13%
N#Cc1c(NCc2ccccc2)ccnc1NCc1cccnc1 | ? | ?
Cc1ccc2cc(C#N)c(SCC(=O)N3CCCc4ccccc43)nc2c1C | -11% | -3%

Further entries follow.
SMILES | Vaccinia mCherry | Vaccinia Venus
Cc1cc(C(=O)N2CCCC(N3CCN(Cc4ccc5c(c4)OCO5)CC3)C2)n[nH]1 (stereo not given) | -18% | -4%
CCCCCn1c(=N)c(S(=O)(=O)c2ccccc2)cc2c(=O)n3cccc(C)c3nc21 | 1% | 11%
CC1CCN(C(=O)c2ccc(N3C(=O)C4CCC(C)CC4C3=O)cc2)CC1 (stereo not given) | ? | 8%
Cc1onc(-c2ccccc2Cl)c1C(=O)OCC(=O)c1c(N)n(C)c(=O)n(C)c1=O | i | -10%
O=C(O)c1ccc(CNC(=O)c2ccc(C(F)(F)F)cc2)cc1 | -6% | 4%
Oc1cccc(/C=N/n2c(C3CCCCC3)n[nH]c2=S)c1 | -20% | -14%
CCOC(=O)CSc1n[nH]c(-c2cccnc2)n1 | -2% | -8%
Cc1ccc(OCC(=O)Nc2nnc(-c3ccco3)s2)cc1 | -8% | -12%
CCNC(=O)CSc1nc2ccccc2c(=O)n1-c1cc(OC)ccc1OC | -4% | 0%
Cc1ccc(CN2CCN(C(=O)c3cccc4ccccc34)CC2)cc1 | -5% | -12%
Cc1cc(C(=O)OCC(=O)N2CC(C)OC(C)C2)c(C)n1-c1ccccc1 (stereo not given) | -26% | -3%
O=C(CCc1nc2ccccc2c(=O)[nH]1)OCc1ccc(Cl)cc1Cl | -15% | -11%

Compounds above with a CF3 group:
SMILES | Vaccinia mCherry | Vaccinia Venus
O=C(c1cc2nc(-c3ccco3)cc(C(F)(F)F)n2n1)N1CCN(c2ccccn2)CC1 | -25% | -10%
O=C(Nc1cnn(Cc2ccc(F)cc2)c1)c1cc2nc(-c3ccco3)cc(C(F)(F)F)n2n1 | -19% | -6%
O=C(O)c1ccc(CNC(=O)c2ccc(C(F)(F)F)cc2)cc1 | -6% | 4%
